Source: PubChem
UCH37 DUB inh: blocks the human deubiquitinase UCH37; Q9Y5K5; purified proteasome/UCH37, Ub-AMC cleavage fluorescence; inhibition, % (no concentration beside the values); 0.33% of 330,000 active; AID 588478;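 active means mean of two replicates above 20%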;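 further: 0% = compound-free wells with enzyme and 100% = wells lacking proteasome; stock transfer was 100 nL into about 20 µL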
Target sequence (Q9Y5K5 whole entry, looked up): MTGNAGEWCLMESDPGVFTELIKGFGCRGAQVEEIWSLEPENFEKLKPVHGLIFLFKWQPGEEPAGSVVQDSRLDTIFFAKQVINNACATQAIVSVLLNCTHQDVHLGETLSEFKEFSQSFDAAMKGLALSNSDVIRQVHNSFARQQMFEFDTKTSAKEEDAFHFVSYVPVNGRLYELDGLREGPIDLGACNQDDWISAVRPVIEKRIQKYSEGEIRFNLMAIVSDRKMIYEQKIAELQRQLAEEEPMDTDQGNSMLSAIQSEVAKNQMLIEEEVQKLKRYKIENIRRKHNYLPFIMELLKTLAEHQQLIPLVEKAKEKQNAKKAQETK
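Material: human UCH37 enzyme supplied as purified proteasome complex / Amount: 0.15 nM proteasome as dispensed / Buffer or medium: pH 7.4 Tris-HCl (50 mM) with ovalbumin, ATP-MgCl2, DTT / Times: preincubation 30 min, reaction 25 min, room temperature / Technique: AMC fluorescence from Ub-AMC cleavage, excitation 355 nm, emission 460 nm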
ALR H2O2 inh: blocks human ALR sulfhydryl oxidase activity; purified ALR, DTT oxidation, H2O2 HRP-luminol luminescence; inhibition, % (test concentration not listed); P55789; 3.8% of 290,000 active;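 active means mean and each replicate at 75% or more; inconclusive means only one of the two met; inactive means neither met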;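 further: stock transfer was 7.5 nL into about 7.5 µL; 0% = neutral wells and 100% = wells with inactivated enzyme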
FGF22 binding: binders of recombinant human FGF22 by thermal shift; 1.5% of 340,000 active; Q9HCT0; SYPRO orange fluorescence; percent of sucrose octasulfate shift, DMSO zero; AID 651658; calls only at 9.99 µM;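 active means melting point raised past a set limit in the mean and every replicate; inconclusive means no clear call; three in four hits are not shown here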
Target sequence (Q9HCT0 whole entry, looked up): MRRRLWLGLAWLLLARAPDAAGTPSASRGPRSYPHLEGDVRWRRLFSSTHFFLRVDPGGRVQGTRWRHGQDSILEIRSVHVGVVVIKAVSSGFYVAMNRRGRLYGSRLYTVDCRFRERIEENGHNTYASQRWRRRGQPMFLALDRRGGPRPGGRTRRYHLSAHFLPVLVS
B2AR ag: activates human beta-2 adrenergic receptor causing internalization | AID 504454 | Am2.2-beta2AR cells, FAP receptor internalization, flow cytometry; reference of the scale not given here | 0.43% of 340,000 active | P07550 | response, % (test concentration not listed);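 active means response above a set limit, near 3 SD of response in nonfluorescent compounds, cut at about 42% in these data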;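 further: stock transfer was 100 nL into about 11 µL; a reference agonist was the positive control; negative values mostly stem from fluorescent compounds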
Ecoli growth: E. coli growth inhibition | Escherichia coli growth, OD600, 23 h; hits give low values | OD600 absorbance (concentration not given with the values) | 0.21% of 330,000 active;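 active means OD600 absorbance below the run mean of sample wells minus 3.6 SD, in any replicate, cut at about 0.56 in these data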;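 further: stock transfer was 300 nL into about 60 µL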
LANA-H2B inh: blocks KSHV LANA binding to histone H2A/H2B | AID 2629 | inhibition, % (concentration not given with the values) | cell-free LANA-H2A/H2B peptide, fluorescence polarization | 0.6% of 320,000 active | Q9QR71; in the data active means inhibition mostly above about 10%, no sharp cut-off; inactive means mostly below about 6.7%;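 further: stock transfer was 7.5 nL into about 10 µL; 0% = median of vehicle wells and 100% = median of positive control wells; one replicate is shown; the record names a cut of 25% in any replicate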
HNF4A DNA FP: change in binding of human HNF4 alpha to DNA; HNF4a-FITC DNA binding, fluorescence polarization, 1 h; activity change, % at 10 µM; P41235; 0.3% of 360,000 active; in the data active means activity change above about 30%, passing the limit was not always enough;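 further: controls were the assay level and a saturating level of protein; the project sought stronger binding though the title names inhibitors; some compounds called inactive have numbers as strong as hits; positive values seem to mean higher polarization but the record does not say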
Target sequence (P41235 whole entry, looked up): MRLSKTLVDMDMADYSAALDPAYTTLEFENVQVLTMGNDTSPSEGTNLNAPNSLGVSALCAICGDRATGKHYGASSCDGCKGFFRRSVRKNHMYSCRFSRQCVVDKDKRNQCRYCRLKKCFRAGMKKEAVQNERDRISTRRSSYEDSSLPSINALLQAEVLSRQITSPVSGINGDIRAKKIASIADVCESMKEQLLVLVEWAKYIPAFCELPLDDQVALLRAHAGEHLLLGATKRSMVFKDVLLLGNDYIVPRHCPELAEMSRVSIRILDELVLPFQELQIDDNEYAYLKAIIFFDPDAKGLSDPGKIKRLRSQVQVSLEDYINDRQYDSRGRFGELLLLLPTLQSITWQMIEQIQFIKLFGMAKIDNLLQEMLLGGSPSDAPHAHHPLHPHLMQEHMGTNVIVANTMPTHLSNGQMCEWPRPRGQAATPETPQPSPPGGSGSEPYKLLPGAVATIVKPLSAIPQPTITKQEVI
An asterisk follows results filed as active; i = inactive; u = inconclusive; x = not tested or not shown.

SMILES	UCH37 DUB inh	ALR H2O2 inh	FGF22 binding	B2AR ag	Ecoli growth	LANA-H2B inh	HNF4A DNA FP
O=C(NCCCn1ccnc1)/C(=C\c1ccc(Br)cc1)NC(=O)c1ccccc1	6.0	-3	i	-3	0.66	0.8	-0.3
COc1ccc(CNC(=O)c2c[nH]c3ccccc3c2=O)cc1	1.2	x	i	-15	0.65	-3.8	1.3
O=C1CCCC/C1=C\Nc1ccc(Cl)cn1	13	-16	x	-16	0.69	1.3	2.8
CC1CCCCC12NC(=O)N(CC(=O)Nc1ccccc1-c1ccccc1)C2=O (centres undefined)	6.3	-14	i	-1	0.7	2.8	1.9
Cc1cc(SCC(=O)c2cccs2)nc2c(C)cccc12	2.7	-10	x	-3	0.69	-2.1	-1.0
Cc1ccc(S(=O)(=O)Nc2nc(CN3CCOCC3)nc3sc(C)c(C)c23)cc1	1.7	-1	i	5	0.7	-310	13
Cc1ccc(-c2nnc(Nc3ccc(C(=O)N(C)C)cc3)c3ccccc23)cc1S(N)(=O)=O	-1.4	-2	i	-8	0.68	-3.7	0.8
CN(Cc1cccc(Cl)c1Cl)CC(O)COc1ccccc1 (centres undefined)	2.1	-134	i	1	0.61	1.4	0.1
COc1cc(/C=C(\C#N)C(=O)Nc2ccccc2C(=O)O)cc(Cl)c1OC	6.2	15	i	9	0.71	-2.9	1.1
CCC1C(=O)n2nc(-c3ccccc3)cc2N=C1C (centres undefined)	-10	-2	i	-9	0.63	4.6	-0.1
COc1ccccc1NC(=O)COC(=O)c1ccc2c(c1)nc(C)n2-c1ccccc1	-4.8	-3	x	0	0.65	4.1	5.2
C=CCn1c(CCC(O)COCCC)n[nH]c1=S (centres undefined)	-0.1	x	i	4	0.7	-0.3	4.9
CCSC1=C(C#N)C(c2ccc(F)cc2)CC(=O)N1 (centres undefined)	3.2	x	i	10	0.71	x	-2.0
CCC(C)(C(=O)Nc1c(C)cccc1C)N(C)C(=O)c1ccc2ccccc2n1 (centres undefined)	-1.3	-2	i	-1	0.71	2.7	2.0
O=C(O)c1cc2c(cc1Br)OCCCO2	1.6	10	x	2	0.74	-1.5	5.2
CSCc1nnc(NC(=O)c2ccc(S(=O)(=O)N(C)C)cc2)o1	4.6	34	i	21	0.7	4.8	-1.0
c1ccc2c(c1)oc1c(NCc3ccc4c(c3)OCO4)ncnc12	-0.5	-3	x	-5	0.73	-1.0	1.6
O=C1C=C(OCc2ccccc2)CN1	3.7	-3	x	-4	0.66	-2.3	2.1
CC(C)c1nn2c(=O)cc(CSc3ccccc3NC(=O)c3ccccc3F)nc2s1	0.3	-1	i	-1	0.61	1.6	0.8
Cc1ccc(NC(=O)CNC(=O)Cc2cccc3ccccc23)c(O)c1	1.4	-24	i	18	0.65	0.9	1.9
CC(=O)Nc1cccc(/C(C)=N/NS(=O)(=O)c2ccc(C)cc2)c1	x	4	i	-1	x	-1.1	9.1
Cn1c(=O)[nH]c(=O)c2c1nc(N1CCCCCC1)n2CCSc1nc2ccccc2o1	3.6	-11	x	-22	0.74	-1.0	2.5
O=C(NCCC1CCCCN1S(=O)(=O)c1ccc(Cl)cc1)C(=O)NCc1cccnc1 (centres undefined)	4.3	-9	i	3	0.7	-3.2	-1.2
CC(NC(=O)c1ccncc1)c1ccccc1 (centres undefined)	1.5	-8	i	2	0.65	-0.6	0.7
Cc1cccc(N(CC(=O)NC(C)(C)C)C(=O)CCC(=O)Nc2nccs2)c1	0.2	-10	i	0	0.66	1.8	0.5
Cc1sc2ncnc(N3CCC(C(=O)NNC(=O)COc4ccccc4Cl)CC3)c2c1C	-1.7	11	i	12	0.68	0.2	0.9
O=C(COc1ccc([N+](=O)[O-])cc1)Nc1ccc2c(c1)OCO2	3.3	-10	i	7	0.7	-7.2	-5.4
CCOC(=O)c1sc(NC(=O)CN2C(=O)NC3(CC(C)CC(C)(C)C3)C2=O)c(C(=O)OCC)c1C (centres undefined)	-0.8	-2	i	5	0.69	-1.8	0.7
O=C(CN1CCN(C2CCCCC2)CC1)Nc1cccc2ccccc12	4.3	-4	i	-6	0.74	1.6	-2.4
COc1cc(C2CC(=O)Nc3n[nH]c(-c4ccccc4)c32)cc(OC)c1OC (centres undefined)	0.2	-6	x	x	0.72	0.6	x
CN(CC(=O)Nc1ccc(F)cc1)C(=O)CSc1ccc2c(c1)OCCO2	0.0	9	i	-8	0.69	2.9	3.8
OCCN(CC#CCn1c2ccccc2c2ccccc21)CCO	0.2	-14	i	11	0.64	1.1	1.0
C=CCn1c(SCc2nc3sc(C(=O)O)c(C)c3c(=O)[nH]2)nnc1-c1ccccc1	x	40	x	2	x	-3.3	-2.2
CCc1nnc(NC(=O)C23CC4CC(CC(C4)C2)C3)s1	2.7	-12	i	2	0.65	3.9	0.1
CC(C)c1nnc(NC(=O)CCC(=O)NCCc2ccccc2)s1	3.8	-19	i	5	0.68	-3.0	1.4
O=C(NC1CCCCC1)N1CCN(c2nc(-c3ccccc3)cs2)CC1	-0.1	28	i	-5	0.69	0.2	1.4
Cc1ccc2cc(CCNC(=O)CCCc3ccccc3)c(=O)[nH]c2c1	-3.1	-3	i	-6	0.71	1.9	3.1
O=C(CSc1nnc(-c2ccc(F)cc2)c2ccccc12)Nc1c(F)cccc1F	1.0	35	i	-6	0.72	4.4	10
CC(C)CN(CC(C)C)C(=O)CCCC(=O)N(CC(C)C)CC(C)C	1.5	x	x	5	0.71	-2.0	-2.2
CC1(c2ccccc2)NC(=S)N2C1NC(=S)N2c1ccccc1 (centres undefined)	3.2	3	x	-1	0.67	-3.2	0.1

3 compounds already listed, arranged by the value under ALR H2O2 inh, ascending:
mol	ALR H2O2 inh
CC(C)c1nnc(NC(=O)CCC(=O)NCCc2ccccc2)s1	-19
O=C(NC1CCCCC1)N1CCN(c2nc(-c3ccccc3)cs2)CC1	28
CSCc1nnc(NC(=O)c2ccc(S(=O)(=O)N(C)C)cc2)o1	34

Next structures follow:
SMILES	UCH37 DUB inh	ALR H2O2 inh	FGF22 binding	B2AR ag	Ecoli growth	LANA-H2B inh	HNF4A DNA FP
Cc1cccc(Oc2ncccc2[N+](=O)[O-])c1C	-0.5	x	i	-2	0.69	x	2.1
O=C(N/N=C1\CCCCc2ccccc21)c1ccccn1	x	-6	i	22	x	3.0	5.4
O=c1cc(CSc2ccc(Cl)cc2)[nH]c2[nH]n(-c3ccccc3)c(=O)c12	7.1	85*	i	12	0.68	-0.9	1.6
CCCCN(CCCC)c1nn[nH]n1	5.0	x	i	-7	0.68	x	-2.5
Cc1cccc(N2CCN(c3ccc(C(N)=O)cc3[N+](=O)[O-])CC2)c1C	2.7	-21	i	-7	0.69	0.2	0.5
Cc1cc(NC(=O)c2noc3c2CCCC3)nn1Cc1ccc(Cl)cc1	0.2	1	x	-5	0.66	-2.0	-0.2
CCCCNC(=O)C1CCCN(S(=O)(=O)c2ccc(-n3cnnn3)cc2)C1 (centres undefined)	0.0	-10	x	-2	0.71	1.5	2.3
O=C(COc1ccccc1)N[C@@H]1c2ccccc2CC[C@@H]1OCc1ccccc1	1.1	x	i	-4	0.69	x	1.3
CC(C)C[C@@H](CSc1ccccc1)N1CCN(C)CCC1=O	2.2	-1	i	-11	x	0.7	2.6
CC(=O)CNc1ccc(S(=O)(=O)N/N=C/c2ccccc2)cc1	x	x	i	7	x	2.3	2.4
Clc1ccc(OCCn2cnc(Cl)c2Cl)cc1	2.3	1	i	-2	0.66	3.6	3.0
CCc1nccn1CCC(=O)N1CCCC(Nc2ccc(C(C)C)cc2)C1 (centres undefined)	1.2	69	i	-11	0.68	1.2	2.0
Cc1ccc(CNC(=O)C2CCC(CNc3c(N4CCC(C)CC4)c(=O)c3=O)CC2)cc1 (centres undefined)	4.0	0	i	-18	0.71	6.0	2.1
CCN(Cc1ccc(OC)c(F)c1)C(=O)C1CCCO1 (centres undefined)	2.1	-3	i	-10	0.68	1.4	4.4
COc1ccc(OC)c(NC(=O)NC2(C(F)(F)F)Oc3ccccc3O2)c1	3.5	-8	x	-2	0.69	-1.6	4.6
CN(C)c1ccc(C(=O)OCC(=O)c2cccs2)cc1	6.3	-16	i	x	0.72	-0.6	0.2
COc1ccccc1N1CCN(C(=O)CCn2c(=O)[nH]c3ccccc3c2=O)CC1	7.2	35	x	-2	0.69	2.6	-0.3
Cc1ccc(CCNC(=O)CN(C)S(=O)(=O)c2ccc3c(c2)n(C)c(=O)c(=O)n3C)cc1	-0.5	-3	i	-10	0.71	0.3	1.0
CCOC(=O)C1(CCCc2ccccc2)CCN(CCCn2cccn2)CC1	0.4	-1	i	2	0.68	-2.0	-3.5
N#CC1=C(N)N(c2ccc(Cl)c(Cl)c2)C(=O)C1	3.0	u	i	9	0.65	-9.9	-1.4
O=C(COc1ccc(Br)cc1)NCCCNC(=O)c1cnccn1	3.3	-3	i	-1	0.68	3.9	-1.6
CCC(=O)Nc1ccc(C(=O)CSc2nc3ccccc3[nH]2)cc1	1.2	1	i	-24	0.69	0.4	-12
CC(NS(=O)(=O)c1ccccc1)C(=O)Nc1ccc(S(N)(=O)=O)cc1 (centres undefined)	2.0	-14	x	0	0.72	-0.3	3.9
CCn1c(-c2cc(Cl)ccc2OC)n[nH]c1=S	1.2	92*	x	6	0.78	0.3	-1.4
COc1ccc(CCNC(=O)C2CC(c3ccccc3[N+](=O)[O-])=NO2)cc1 (centres undefined)	2.0	-2	i	-2	0.69	3.8	-0.4
CCN(C[C@H]1N[C@@](CC)(C(=O)OC)[C@H]2C(=O)N(C)C(=O)[C@@H]12)C(C)=O	4.3	x	i	-6	0.71	x	-1.5
CCN(CC)c1ccc(NC(=O)CN2C(=O)CSc3ncccc32)c(C)c1	4.2	97*	i	-13	0.76	-0.2	0.5
CN(C(=O)c1ccncc1)c1nnc(-c2ccncc2)s1	-34	-4	x	3	0.69	-4.0	4.1
COc1cccc(/C=C2\N=C3CCCCCN3C2=O)c1	6.3	4	x	2	0.68	-3.0	-3.7
CCCCCC(=O)N/N=C/c1cccs1	x	1	i	-4	x	0.4	1.9

6 entries from above, ordered by SMILES length, smallest number first.
SMILES	UCH37 DUB inh	ALR H2O2 inh	FGF22 binding	B2AR ag	Ecoli growth	LANA-H2B inh	HNF4A DNA FP
CCCCCC(=O)N/N=C/c1cccs1	x	1	i	-4	x	0.4	1.9
COc1cccc(/C=C2\N=C3CCCCCN3C2=O)c1	6.3	4	x	2	0.68	-3.0	-3.7
CN(C(=O)c1ccncc1)c1nnc(-c2ccncc2)s1	-34	-4	x	3	0.69	-4.0	4.1
CCC(=O)Nc1ccc(C(=O)CSc2nc3ccccc3[nH]2)cc1	1.2	1	i	-24	0.69	0.4	-12
CC(NS(=O)(=O)c1ccccc1)C(=O)Nc1ccc(S(N)(=O)=O)cc1 (centres undefined)	2.0	-14	x	0	0.72	-0.3	3.9
CCN(C[C@H]1N[C@@](CC)(C(=O)OC)[C@H]2C(=O)N(C)C(=O)[C@@H]12)C(C)=O	4.3	x	i	-6	0.71	x	-1.5

Later entries.
SMILES	UCH37 DUB inh	ALR H2O2 inh	FGF22 binding	B2AR ag	Ecoli growth	LANA-H2B inh	HNF4A DNA FP
COc1cc2cc(CCCOC(=O)c3ccc(F)cc3)oc(=O)c2cc1OC	0.7	-4	i	-5	0.72	-0.1	2.4
Cc1nnc(SCC(=O)Nc2ncc(Cc3ccc(F)cc3)s2)n1N	1.1	1	x	0	0.8	-2.5	1.4
CCCCCC1CC(CC/C(C)=N/NC(N)=O)C(=O)O1 (centres undefined)	x	x	i	7	x	-2.5	0.8
Cc1ccccc1Nc1ncnc2c1cnn2Cc1ccccc1	2.0	-15	i	1	0.64	1.5	-1.5
Cn1c(Cl)cnc1C(O)c1ccccc1 (centres undefined)	0.9	2	i	3	0.66	-2.3	0.1

Only part of the results is shown, so the mix of outcomes need not match the whole.
